High-throughput results as filed in PubChem BioAssay.
CBX7 AlphaScr = CBX7 chromodomain binding inhibitors, primary screen, biochemical, AlphaScreen | Chromobox protein homolog 7 (Homo sapiens), O95931 | AlphaScreen His6-CBX7 / biotin-H3K27me3 peptide binding; stronger effect = lower value | normalised signal (fraction of DMSO) (test concentration not listed) | 66,000 tested, 1.1% active; in the data active = normalised signal below about 0.5;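 note: 100 nL library stock added to about 20 µL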
Target sequence (O95931 whole entry, looked up): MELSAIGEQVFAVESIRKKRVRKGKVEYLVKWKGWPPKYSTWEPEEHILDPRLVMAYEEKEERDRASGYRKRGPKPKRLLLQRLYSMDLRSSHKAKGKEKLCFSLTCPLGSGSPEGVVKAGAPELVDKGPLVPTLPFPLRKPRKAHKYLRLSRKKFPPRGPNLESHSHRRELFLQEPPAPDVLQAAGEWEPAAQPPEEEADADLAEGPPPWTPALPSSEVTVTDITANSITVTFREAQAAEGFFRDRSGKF
CBX7 AlphaScr z-score = further read-out of CBX7 AlphaScr, marked with its call; z-score; measured here: z-score of CBX7 signal; some inactives read as strong as hits; reference of the scale not given here;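 same signal on another scale; lower means less binding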
* = called active by the depositor. Not all compounds are listed; count on the stated rates, not on these rows.

The opening two records, to show the layout:
SMILES	CBX7 AlphaScr	CBX7 AlphaScr z-score
COc1ccccc1C(=O)Nc1nnc(Cc2ccc(Cl)c(Cl)c2)s1	1.1	0.33
Cc1ccc(-c2nc3ncccc3o2)cc1NC(=O)COc1ccc(C(C)C)cc1	1	1.2

This part in full, repeating the preview:
SMILES	CBX7 AlphaScr	CBX7 AlphaScr z-score
COc1ccccc1C(=O)Nc1nnc(Cc2ccc(Cl)c(Cl)c2)s1	1.1	0.33
Cc1ccc(-c2nc3ncccc3o2)cc1NC(=O)COc1ccc(C(C)C)cc1	1	1.2
Cc1cccc(N2CC(c3nc4ccccc4[nH]3)CC2=O)c1C (centres undefined)	0.99	-0.072
O=C(Cc1ccc(-n2c(=O)[nH]c3ccsc3c2=O)cc1)NCCc1ccccc1	1.1	3.3
COc1ccc(NC(=O)N(CCC(C)C)C2CCN(C(C)C)CC2)c(OC)c1	1	0.45
CCN(Cc1ccccc1)C(=O)c1oc2ccc(S(=O)(=O)N3CCOCC3)cc2c1C	0.89	-2.5
Cc1ccc2oc(-c3ccc(NC(=O)c4ccc(Cl)cc4)cc3)nc2c1	1	0.44
Cc1nc2ccc3nc(NC(=O)c4cccc(Br)c4)sc3c2s1	0.94	-0.99
CC1CN(c2cc(=O)n(-c3ccccc3Cl)c(=O)[nH]2)CC(C)O1 (centres undefined)	1	0.15
O=C1CN(C(=O)c2ccccc2Br)C(c2ccc(F)cc2)c2cc(F)ccc2N1 (centres undefined)	1.1	0.33
CC(C)OCCCNC(=O)CCn1nc(-c2ccc(Cl)cc2)ccc1=O	1	0.21
Cc1sc2nc(C)n(Cc3cccc(F)c3)c(=O)c2c1C	0.93	-0.065
CCOc1ccc2nc(N3CCCCC3)sc2c1	1.1	0.56
COc1ccc(Cl)cc1NS(=O)(=O)c1ccc2c(c1)CCN2C(=O)C1CC1	1	-0.13
Cn1c(=O)c(C(=O)Nc2ccccn2)c(O)c2ccccc21	0.72	-3
COc1ccc(C2=NOC(C(=O)N3CCCC3)C2)cc1 (centres undefined)	1.1	1.3
CCOc1ccc(C(=O)Nc2cc(-c3nc4ncccc4o3)ccc2Cl)cc1	1	0.083
CCOCCCNC(=O)c1cc(Nc2ccc(OCC)cc2)nc2ccccc12	0.97	-0.91
COc1cccc(-c2cc(C(=O)NCc3ccc(Cl)c(Cl)c3)c3ccccc3n2)c1	1.1	0.39
CC1=Nc2cc(C(=O)NCCc3ccc(Cl)cc3)ccc2Sc2c(C)ccc(C)c21	0.94	-0.95
CCOC(=O)c1c(NC(=O)COc2ccc(F)cc2)sc2c1CCCC2	1.1	5.2
O=C(CN1C(=O)COc2ccc(S(=O)(=O)N3CCOCC3)cc21)NCC1CCCO1 (centres undefined)	1	1.5
O=C(CC1Sc2ccc(C(F)(F)F)cc2NC1=O)Nc1ccc(Cl)cc1 (centres undefined)	1	0.77
CCCCn1c(CCNC(=O)c2cccc(C)c2)nc2ccccc21	0.97	-0.47
CCc1ccc2c(c1)c(=O)c(S(=O)(=O)c1ccccc1)cn2CC(=O)Nc1ccccc1C	1	0.49
CC(C)C(NS(=O)(=O)c1cccs1)C(=O)NCc1ccc2c(c1)OCO2 (centres undefined)	1.1	1.7
CCC(C)NC(=O)C1CCN(S(=O)(=O)c2c(C)noc2/C=C\c2ccc(OC)cc2)CC1 (centres undefined)	0.92	-0.16
CCOP(=O)(OCC)c1nc(-c2ccc(Cl)cc2Cl)oc1NC	0.79	-1.3
O=C(COCc1cc(-c2ccc(F)cc2)on1)Nc1ccc(Cl)cc1	1.1	1
C#CCOc1ccc(-c2nnc(Nc3cccc(C)c3)c3ccccc23)cc1	0.94	-0.3
COc1ccccc1Nc1nc(-c2cc3cccc(OC)c3oc2=O)cs1	1.1	1.1
Cc1ccccc1-c1nc(CS(=O)(=O)CC(=O)Nc2cc(C(F)(F)F)ccc2Cl)c(C)o1	0.94	-1.7
CCc1nc(-c2cc(OC)cc(OC)c2)cc2cc(OC)c(OC)cc12	0.96	-1.1
O=C(NCCCN1CCC(Cc2ccccc2)CC1)c1csc2c1CCCCC2	0.96	-1
Cc1ccc(NC(=O)CSc2nnc(Cc3cc(=O)[nH]c(=O)[nH]3)n2-c2ccccc2)cc1Cl	1	1.7
COc1ccc(OC)c(NC(=O)c2c(NCc3cc(OC)c(OC)cc3OC)sc3c2CCCC3)c1	0.57	-22
Cc1ccc2nc(-c3cccnc3)c(Nc3ccc4c(c3)OCO4)n2c1	0.95	-1.4
COc1ccc(-c2nn3c(-c4ccccc4Cl)nnc3s2)cc1OC	1	1.5
CC(C)(C)OC(=O)N1CCC(c2c(C(=O)O)cnn2-c2ccccc2Cl)CC1	1	1.7
Cc1ccc(S(=O)(=O)CCc2nnc(NC(=O)c3cccs3)s2)cc1	1	0.28
CC1CCCCN1CCCNC(=O)c1ccc2c(c1)NC(=O)CS2 (centres undefined)	1	0.18
CCn1c(SCC(=O)Nc2ccccc2)nnc1-c1cccnc1	1	0.21
COc1ccc(-c2nc(CS(=O)(=O)CC(=O)NCCCN3CCOCC3)c(C)o2)cc1	1	0.11
O=C(CN1CCCCC1)Nc1c(C(=O)c2ccc(Br)s2)oc2ccccc12	0.87	-2.1
COc1ccc(CCN2CC(C(=O)NCc3ccc(C)cc3)CC2=O)cc1OC (centres undefined)	1	-0.051
CC1CCN(S(=O)(=O)c2ccc3[nH]c(=O)cc(C(=O)NCCCN4CCCCCC4)c3c2)CC1	0.97	-0.57
CC1(C)CC(=O)c2sc(NC(=O)Cc3ccc(Br)cc3)nc2C1	1	0.53
CCN(CC)C(=O)COc1ccc(-c2nnc(Nc3ccc(OC)c(C(N)=O)c3)c3ccccc23)cc1	1	0.15
O=C(Nc1ccc(F)cc1)C1CC1(c1ccccc1)c1ccccc1 (centres undefined)	1	0.026
COc1ccc(N(CC(=O)Nc2ccc(C(C)C)cc2)S(=O)(=O)c2c(C)nn(C)c2C)cc1	1	0.23
O=C(NCCc1ccccc1)C1=CCN(S(=O)(=O)c2ccc(Br)cc2)CC1	1.1	2.6
O=C(CCn1nc(-c2ccccc2)ccc1=O)NCCCN1CCCCCC1	1	0.59
Cc1cccc(C)c1NC(=O)c1cnn(-c2ccccc2)c1C1CCN(C(=O)OC(C)(C)C)CC1	0.64	-3.7
COc1ccccc1CN1C(=O)CCC1(C)C(=O)NCc1cccnc1 (centres undefined)	0.99	-0.48
CC(NC(=O)[C@@H](c1ccccc1)N1Cc2ccccc2C1=O)c1ccc2c(c1)OCCO2 (some centres undefined)	0.98	-1
O=C(Nc1ccc2oc(-c3cccc(F)c3)nc2c1)c1ccc(-c2ccccc2)cc1	0.99	-0.52
COc1ccccc1CN1C(=O)Cn2cccc2C1C(=O)NC1CCCCCCC1 (centres undefined)	0.98	-0.058
CCOc1ccccc1NC(=O)COc1ccccc1C(C)(C)C	1.1	0.18
COc1ccc(Cl)cc1NC(=O)c1c(NCc2cccnc2)sc2c1CCC2	0.88	-6.1
COC(=O)c1c[nH]n2c(NC3CCCC3)c(-c3ccc(C)cc3)nc12	0.5	-0.56

Next part:
SMILES	CBX7 AlphaScr	CBX7 AlphaScr z-score
O=C(CN1C(=O)c2ccccc2C1=O)Nc1nc(-c2ccncc2)cs1	1	0.84
Cc1ccc(Nc2cc(C(=O)NCc3ccc(Cl)cc3)c3ccccc3n2)c(C)c1	0.9	-1.5
Cc1ccc2c(c1)C(c1ccc(F)cc1)N(C(=O)c1ccc3c(c1)OCO3)CC(=O)N2 (centres undefined)	0.68	-5.8
Cc1c(C(=O)NCCCN2CCOCC2)sc2ncnc(N3CCN(c4ccccn4)CC3)c12	1	0.93
COc1ccc(N(Cc2nnc3n2CCCCC3)C(=O)Nc2ccccc2)cc1	1	0.57
COc1ccc(-c2nc(-c3ccc(F)cc3)c(-c3ccc(F)cc3)[nH]2)cc1OC	0.32*	-13*
Cc1ccc(-c2noc(COc3ccc(C(C)(C)C)cc3)n2)cc1	1.2	4.6
O=C(Nc1ccc(OC(F)(F)F)cc1)C1CCCN1S(=O)(=O)c1cccc2cccnc12 (centres undefined)	0.99	-0.3
COc1ccc(-c2nc(CN3CCC(C(=O)NCCC(C)C)CC3)c(C)o2)cc1OC	1.1	1.8
CCOc1ccc(CN2C(=O)c3ccccc3C2C(=O)NC2CCCC2)cc1OC (centres undefined)	1	0.88
COc1ccc(N2Cc3cccc(C(=O)Nc4ccc(OC)c(OC)c4)c3C2=O)cc1	1	-0.089
O=C(O)C1CCN(C(=O)c2cc3sccc3n2Cc2ccc(Cl)cc2)CC1	0.97	-0.71

Ordered by number of heavy atoms (high to low): 15 of the compounds above.
SMILES	CBX7 AlphaScr	CBX7 AlphaScr z-score
COc1ccc(OC)c(NC(=O)c2c(NCc3cc(OC)c(OC)cc3OC)sc3c2CCCC3)c1	0.57	-22
Cc1c(C(=O)NCCCN2CCOCC2)sc2ncnc(N3CCN(c4ccccn4)CC3)c12	1	0.93
CC(NC(=O)[C@@H](c1ccccc1)N1Cc2ccccc2C1=O)c1ccc2c(c1)OCCO2 (some centres undefined)	0.98	-1
COc1ccc(-c2nc(CS(=O)(=O)CC(=O)NCCCN3CCOCC3)c(C)o2)cc1	1	0.11
CCOc1ccc(CN2C(=O)c3ccccc3C2C(=O)NC2CCCC2)cc1OC (centres undefined)	1	0.88
COc1ccc(-c2nc(-c3ccc(F)cc3)c(-c3ccc(F)cc3)[nH]2)cc1OC	0.32*	-13*
CCOc1ccc(C(=O)Nc2cc(-c3nc4ncccc4o3)ccc2Cl)cc1	1	0.083
O=C(CN1CCCCC1)Nc1c(C(=O)c2ccc(Br)s2)oc2ccccc12	0.87	-2.1
CC(C)OCCCNC(=O)CCn1nc(-c2ccc(Cl)cc2)ccc1=O	1	0.21
Cc1ccc(S(=O)(=O)CCc2nnc(NC(=O)c3cccs3)s2)cc1	1	0.28
CCn1c(SCC(=O)Nc2ccccc2)nnc1-c1cccnc1	1	0.21
CCOP(=O)(OCC)c1nc(-c2ccc(Cl)cc2Cl)oc1NC	0.79	-1.3
Cn1c(=O)c(C(=O)Nc2ccccn2)c(O)c2ccccc21	0.72	-3
COc1ccc(C2=NOC(C(=O)N3CCCC3)C2)cc1 (centres undefined)	1.1	1.3
CCOc1ccc2nc(N3CCCCC3)sc2c1	1.1	0.56

The list continues:
SMILES	CBX7 AlphaScr	CBX7 AlphaScr z-score
O=C(C1CCN(S(=O)(=O)c2cccc3cccnc23)CC1)N1CCN(c2ccccc2F)CC1	0.98	-0.28
O=C(NCc1ccccc1Cl)C1CCN(S(=O)(=O)c2cccs2)CC1	0.96	-0.87
CCn1c(NC(=O)Nc2cc(C)ccc2C)cc2sccc21	1	0.54
C=CCN(C(=O)c1ccc2nc(C)c(C)nc2c1)c1ccccc1	0.96	-0.48
O=C(Cn1nnc(-c2ccc3c(c2)OCO3)n1)Nc1ccc(F)c(F)c1	1	0.4
CCOC(=O)C1CCCN(c2c(NCCCN(CC)c3ccccc3)c(=O)c2=O)C1 (centres undefined)	0.95	-1.5
Cc1cc(NC(=O)C2CCN(S(=O)(=O)c3cccnc3)CC2)ccc1Br	1	0.69
Cc1cc(C)cc(-c2nc(-c3cccnc3)no2)c1	0.94	-1.3
Cc1sc(Nc2ccccc2F)nc1-c1ccccc1	0.96	-1.6
CCOC(=O)C1CCCN(c2c(NCCCN(C)Cc3ccccc3)c(=O)c2=O)C1 (centres undefined)	1	0.8
O=C1CC(c2ccc(-c3ccccc3)cc2)c2cc3c(cc2N1)OCO3 (centres undefined)	0.94	-2.5
c1ccc2oc(SCc3cn4cccnc4n3)nc2c1	1.1	3.2
Cc1ccc(-c2nc(NC(=O)c3cncc(Br)c3)sc2C)cc1	1	0.023
CCOC(=O)c1cnc2ccccc2c1Nc1ccccc1OCC	0.87	-1.4
COc1cc2c(cc1OC)C1Cc3ccc(OC)c(OC)c3CN1CC2 (centres undefined)	0.93	-1.8
Cc1ccc(CCNC(=O)C23C[C@H]4C[C@@H](C2)CC(n2nnc(C)n2)(C4)C3)cc1	0.97	-0.36
CC(C)(C)c1ccc(C(=O)Nc2ccc3oc(-c4ccccc4)nc3c2)cc1	0.95	-0.61
CC(=O)N1CCc2cc(S(=O)(=O)N(CC(=O)O)c3ccc(C)cc3)ccc21	1.3	3.2
CC(C)CCOc1cccc(C(=O)Nc2ccc3oc(-c4ccccc4Br)nc3c2)c1	1.1	1.8
COc1ccc(C(=O)NCC2(c3ccccc3)CCOCC2)cc1	0.9	-0.23
c1ccc(-c2csc(Nc3cccc4ccccc34)n2)cc1	0.82	-0.18
Cc1cc(Cl)n2nc(C)c(-c3ccc(F)cc3)c2n1	1	1.3
Cc1nc2ccc(S(=O)(=O)N(C)CC(=O)N3CCOCC3)cc2s1	1.1	0.52
Cc1sc2ncnc(NCCCn3ccnc3)c2c1C	0.99	-0.087
CCCc1cc(C(=O)Nc2cnn(Cc3ccc(Cl)cc3Cl)c2)no1	0.95	-1.6
CCSc1nnc(Cc2cc(=O)[nH]c(=O)[nH]2)n1-c1ccc(Cl)cc1	1	0.59
COc1cccc(C2=NOC(C(=O)NCC3CCCO3)C2)c1 (centres undefined)	1.2	2.2
COc1ccc(OC)c(CNS(=O)(=O)c2ccc3[nH]cc(C(=O)O)c(=O)c3c2)c1	0.79	-2.4
O=C(O)CCC1=C2c3ccccc3CCN2C(=O)CC1	1	0.61
CCN(C(=O)Cc1c(C(=O)O)n(C)c2ccccc12)c1ccc(C)c(C)c1	1	0.12
Cc1ccc(CN2C(=O)CCC2C(=O)NC2CCCC2)cc1 (centres undefined)	1	1.1
Cc1ccc(CNC(=O)C2CCCN(S(=O)(=O)c3c(C)noc3C)C2)cc1 (centres undefined)	1.1	0.73
Cc1ccc(-c2noc(CCC(=O)NCCCN3CCc4ccccc4C3)n2)cc1	0.97	-1.2
Cc1cccc(N2CCN(c3cc(C)nc4c(-c5ccc(Cl)cc5)c(C)nn34)CC2C)c1 (centres undefined)	1.1	1
CCOC(=O)c1ccccc1NC(=O)CCc1nc(-c2ccccc2F)no1	1.1	2.2
Cc1ccc(-n2ncc(C(=O)Nc3cc(Cl)ccc3Cl)c2C2CCNCC2)cc1	0.99	-0.087
O=C([C@H](Cc1ccccc1)N1Cc2ccccc2C1=O)N1CCN(c2ccccn2)CC1	1	1.3
Cn1c(CNC(=O)Cc2ccccc2)nc2ccccc21	1	0.36
COc1ccc(OC)c(NC(=O)CN2C(=O)c3ccccc3S2(=O)=O)c1	0.97	-0.76
